Screening results: PubChem, Center for Chemical Genomics, University of Michigan
CDC25B-CDK2 inh: human CDC25B-CDK2/CyclinA binding inhibition | AID 1259370 | z-score (test concentration not listed) | 94,000 tested, 0.72% active | P30305+P24941 | HTRF CDC25B-CDK2/CyclinA binding, anti-His/anti-Flag; hits give high values;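 also: score is relative to mean and SD of negative controls; strong numbers were not always called active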
TAR Tat displ: HIV-1 TAR-Tat binding disruption. HIV-1 TAR RNA, Tat peptide displacement FRET; hits give high values. AID 1259389. 100,000 tested, 0.6% active. z-score (no concentration beside the values);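 also: score is relative to mean and SD of negative controls; some compounds called inactive have numbers as strong as hits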
* = called active by the depositor.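 The calls were made as follows: active = z-score from 3 up in half or more of its runs; inactive = the rest.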 Not a hit list; overall some 0.87% were active at least once.

N#CC1=C(N)OC(c2cccs2)=C(C#N)C1c1cccs1 (configuration not stated) was read as CDC25B-CDK2 inh -1.45.
For Cn1c(=O)oc2cc(S(=O)(=O)NCCn3c(-c4ccccc4)nc4cccnc43)ccc21 the results were TAR Tat displ -0.45.
`O=C(/C=C/c1cc(-c2ccccc2)c(C(F)(F)F)s1)c1cccs1` gave CDC25B-CDK2 inh -1.86.
O=c1c2ccccc2n2c(-c3ccccc3F)nnc2n1CCc1ccccc1 was read as CDC25B-CDK2 inh -1.15 and TAR Tat displ -0.18.
O=C(Nc1cc(F)ccc1F)c1cnn(-c2cccc(F)c2)c1-n1cccc1 was read as TAR Tat displ 0.15.
Screening Cc1cc(NS(=O)(=O)c2ccc(S(=O)(=O)c3ncc(C(F)(F)F)cc3Cl)s2)no1 returned CDC25B-CDK2 inh -0.71.
For O=C1O[C@@H]2C[C@H]3C[C@@H]2[C@@H]1[C@H]3C(=O)Nc1ccc(C(=O)N2CC=C(c3ccccc3)CC2)cc1 the results were CDC25B-CDK2 inh -2.31 and TAR Tat displ 1.08.
Screening Cc1cccc(-c2nc(-c3cccnc3)no2)c1 returned CDC25B-CDK2 inh -0.9 and TAR Tat displ 1.31.
For COc1c(Cl)cc(Cl)c(OC)c1C(=O)O/N=C(\N)c1ccc([N+](=O)[O-])o1 the results were CDC25B-CDK2 inh -0.04.
`O=C(Nc1ccc(-c2nc3ccccc3s2)cc1)c1ccc2c(c1)CCO2` gave CDC25B-CDK2 inh -1.77.
For COc1ccccc1Nc1ncnc2c1nc1n2CCCCC1 the results were TAR Tat displ -0.09.
For CCc1nc2c3c(C)c(C)n(-c4cccc(OC)c4)c3ncn2n1 the results were CDC25B-CDK2 inh -0.46 and TAR Tat displ 1.25.
For O=c1[nH]c(SCc2ccccc2)nc2c1CCC2 the results were CDC25B-CDK2 inh -0.38 and TAR Tat displ 1.35.
Screening C=CCN1C(=S)N(c2cccc(OC)c2)C2CS(=O)(=O)CC21 (configuration not stated) returned CDC25B-CDK2 inh -1.42.
COc1ccc(C2CC(=O)C3=C(C2)NC(C)=C(C(=O)OCC(C)C)C3c2ccncc2)cc1 (configuration not stated) was read as CDC25B-CDK2 inh -1.94 and TAR Tat displ -0.09.
Screening O=C1CSC2=NC3=C(CCc4ccccc43)C(c3ccccc3Cl)N12 (configuration not stated) returned CDC25B-CDK2 inh -2.97.
CCOc1ccc(S(=O)(=O)N2CCN(c3nc4ccccc4n4cccc34)CC2)cc1 was read as CDC25B-CDK2 inh -1.61 and TAR Tat displ -0.17.
`CC(=O)N1CCN(S(=O)(=O)c2ccc(N3C(=O)CCS3(=O)=O)cc2)CC1` gave CDC25B-CDK2 inh -2.22 and TAR Tat displ 1.16.
CCNc1ncnc2c1cnn2-c1ccc(C)c(C)c1 was read as TAR Tat displ 2.07.
For CC1=NS(=O)(=O)c2cc(S(=O)(=O)CC(=O)Nc3ccc(C(C)C)cc3)ccc2N1 the results were TAR Tat displ 1.08.
`COc1ccc(NC2c3ccccc3C(=O)N2c2ccccn2)cc1Cl` (configuration not stated) gave CDC25B-CDK2 inh -2.13 and TAR Tat displ 0.05.
Screening Cc1cnc(NC(=O)Nc2cc(F)ccc2F)s1 returned CDC25B-CDK2 inh -0.75 and TAR Tat displ 0.19.
For CCOC(=O)c1nnc(CS(=O)(=O)c2ccccc2)o1 the results were CDC25B-CDK2 inh -1.65 and TAR Tat displ 0.56.
O=c1cc(-c2ccccc2)nc2cc(-c3ccc(F)cc3)[nH]n12 was read as CDC25B-CDK2 inh -2.5 and TAR Tat displ 0.21.
For O=C(CSc1nc(-c2ccco2)cc(C(F)(F)F)n1)Nc1ccc(Cl)cc1 the results were CDC25B-CDK2 inh -1.76 and TAR Tat displ 3.45.
Nc1c(-c2nc(-c3ccc(Cl)cc3)no2)nnn1-c1ccc(F)cc1 was read as TAR Tat displ -0.4.
For C#CCOc1c(I)cc(C2Nc3ccc4ccccc4c3C3=C2C(=O)CC(C)(C)C3)cc1OC (configuration not stated) the results were CDC25B-CDK2 inh -4.6.
`CC1=CC(C)(C)Nc2ccc(OC(=O)c3ccc(C)cc3)cc21` gave CDC25B-CDK2 inh 0.45 and TAR Tat displ -0.26.
Cc1ccc2nc(Nc3ccc4c(c3)n(C)c(=O)n4C)c(-n3nc(C)cc3C)nc2c1 was read as CDC25B-CDK2 inh -1.65 and TAR Tat displ -0.64.
O=C(Nc1cccc(C(=O)N2CCc3ccccc32)c1)C1=CSCCO1 was read as TAR Tat displ 1.17.
For CCCSc1ncc(CO)n1Cc1ccc(F)cc1 the results were TAR Tat displ 1.15.
`CCCS(=O)(=O)NCCc1csc(-c2ccc(F)cc2)n1` gave TAR Tat displ 0.29.
Cc1ccc(C(=O)CC2(O)C(=O)N(CCCc3ccccc3)c3ccccc32)cc1 (configuration not stated) was read as CDC25B-CDK2 inh 0.17.
CCc1nonc1NC(=O)c1sc2ccccc2c1Cl was read as CDC25B-CDK2 inh -1.42 and TAR Tat displ 0.98.
`CC(C)CCNC(=O)C1(C)CCC(=O)N1CCc1c[nH]c2ccccc12` (configuration not stated) gave CDC25B-CDK2 inh -1.42 and TAR Tat displ -0.94.
CCOC(=O)c1sc(=S)n(-c2cccc(Cl)c2)c1N was read as TAR Tat displ 0.95.
Screening COC(=O)CNC(=O)N1CCCC1c1ccco1 (configuration not stated) returned CDC25B-CDK2 inh -3 and TAR Tat displ 1.16.
`CC(C)(C)c1ccc(/C(N)=N/OC(=O)CCOc2ccc(F)cc2)cc1` gave CDC25B-CDK2 inh -0.52.
`O=C(Cn1c(=O)oc2cc(S(=O)(=O)NC3CCCC3)ccc21)Nc1ccccc1F` gave CDC25B-CDK2 inh -1.1 and TAR Tat displ -1.15.
Screening Cc1noc(-c2ccccc2)c1NC(=O)NCc1c(-c2ccccc2)noc1C returned CDC25B-CDK2 inh -0.85.
Cc1noc2ncnc(NCCCN3CCCCC3C)c12 (configuration not stated) was read as TAR Tat displ -1.11.
`COc1ccc(-c2cccc(NS(=O)(=O)c3c(C)n[nH]c3C)c2)nn1` gave TAR Tat displ 0.71.
Screening Cc1ccc(OCCSc2nnc(-c3ccc4c(c3)OCO4)o2)cc1 returned CDC25B-CDK2 inh -4.88 and TAR Tat displ 2.13.
Screening CCn1cc(C2=NOC(C(=O)NC3CCCC3)C2)c(C)n1 (configuration not stated) returned CDC25B-CDK2 inh -0.82 and TAR Tat displ 1.7.
`CCCOC(=O)C1=C(C)NC2=C(C(=O)C(C(=O)OC)C(C)C2)C1c1cc(Cl)c(O)c(OCC)c1` (configuration not stated) gave CDC25B-CDK2 inh -2.24 and TAR Tat displ -0.9.
Screening Cc1ncc([N+](=O)[O-])n1CC(=O)Nc1ccc(F)cc1 returned CDC25B-CDK2 inh -0.63 and TAR Tat displ 0.81.
CCOC(=O)C1CCN(C(=O)C2CCN(c3ccc(-c4cccs4)nn3)CC2)CC1 was read as TAR Tat displ 1.97.
CC(C)OCc1cc(CN2CCN(c3cccc(Cl)c3)CC2)c(O)c2ncccc12 was read as CDC25B-CDK2 inh -8.01 and TAR Tat displ 1.15.
COc1ccc(-n2c(SCc3nc(-c4ccc(C)cc4)no3)nnc2-c2ccncc2)cc1 was read as CDC25B-CDK2 inh 0.12 and TAR Tat displ 1.22.
`COc1cc(C2CC(=O)NC3=C2C(=O)CC(c2ccccc2Cl)C3)c(OC)cc1Br` (configuration not stated) gave CDC25B-CDK2 inh -1.32 and TAR Tat displ 1.32.
Screening COC(=O)C1=C(N)Oc2ccccc2C1C(C#N)C#N (configuration not stated) returned CDC25B-CDK2 inh 18.6*.
CCc1ccc(C(=O)CC2(O)C(=O)Nc3ccc(C)cc32)cc1 (configuration not stated) was read as CDC25B-CDK2 inh 1.39 and TAR Tat displ 0.15.
For CCCCOC(=O)c1cccc(NC(=O)CCN2C(=O)c3cccc([N+](=O)[O-])c3C2=O)c1 the results were CDC25B-CDK2 inh -1.25.
For CCCSc1nc2c(c(=O)[nH]1)C(c1ccc(C(=O)OC)cc1)C(C(=O)OCC)=C(C)N2 (configuration not stated) the results were CDC25B-CDK2 inh -1.11 and TAR Tat displ -0.37.
Screening N#C/C(=C\c1cc(Br)cs1)C(=O)c1cccs1 returned CDC25B-CDK2 inh -0.66.
Screening CCCn1c(C(O)c2ccc(C(C)C)cc2)nc2ccccc21 (configuration not stated) returned CDC25B-CDK2 inh -1.28 and TAR Tat displ 0.87.
O=C(COCc1cc(-c2ccc3c(c2)OCO3)on1)N1CCc2ccccc21 was read as TAR Tat displ -0.96.
`CCCCc1nc(SCC(=O)N2CCc3ccccc32)c2c(=O)n(C)c(=O)n(C)c2n1` gave TAR Tat displ 0.67.
COc1ccc(S(=O)(=O)Nc2ccc(Cl)cc2)cc1OC was read as CDC25B-CDK2 inh -0.71 and TAR Tat displ 0.45.
For Cc1cc(-c2ccc(S(=O)(=O)Nc3ccc(-c4ccno4)cc3)s2)on1 the results were TAR Tat displ 0.71.
c1ccc(Cc2nc3sc4c(c3c3nnnn23)CCCC4)cc1 was read as CDC25B-CDK2 inh -3.38.
`C(=NCc1ccccc1)c1cccs1` gave CDC25B-CDK2 inh -0.81.
Cc1[nH]c(C)c(Cl)c(=O)c1Cl was read as TAR Tat displ 0.38.
Screening Clc1ccc(-n2ncc3c(NCc4ccccn4)ncnc32)cc1 returned TAR Tat displ 1.04.
Screening COc1ccc(OC)c(S(=O)(=O)NCCS(=O)(=O)N2CCN(c3ccccc3)CC2)c1 returned TAR Tat displ 0.18.
COc1ccc(Br)cc1C1CC(c2cccs2)Nc2nnnn21 (configuration not stated) was read as TAR Tat displ 1.55.
Screening O=C(C1CCCN1S(=O)(=O)c1cccc2nsnc12)N1CCn2c1nc1ccccc12 (configuration not stated) returned CDC25B-CDK2 inh 1.03.
Fc1ccc(N2CCN(c3ncnc4[nH]ncc34)CC2)cc1 was read as TAR Tat displ 2.22.
COc1cc(C2C3=C(CC(C)(C)CC3=O)N(C)C3=C2C(=O)CC(C)(C)C3)ccc1O was read as CDC25B-CDK2 inh -0.33 and TAR Tat displ 0.03.
`C=Cc1ccc(CSC2=NS(=O)(=O)c3ccccc3N2)cc1` gave TAR Tat displ 0.23.
Cc1cc2c(cc1S(=O)(=O)CCC(=O)N1CCn3c1nc1ccccc13)OCC(=O)N2 was read as TAR Tat displ 1.47.
Cc1cc(=O)n2c3ccccc3nc2n1CC1CCCO1 (configuration not stated) was read as CDC25B-CDK2 inh -0.39 and TAR Tat displ 0.27.
O=C(C1c2ccccc2C(=O)N2CCc3ccccc3C12)N1CCN(c2ccccn2)CC1 (configuration not stated) was read as CDC25B-CDK2 inh -0.28.
CC(=O)/C(=C\N=S(C)(=O)c1ccc(Cl)cc1)S(=O)(=O)c1ccc(Cl)cc1 (configuration not stated) was read as CDC25B-CDK2 inh 0.23.
O=C(CCSc1ccc(F)cc1)Nc1nc(-c2ccncc2)cs1 was read as TAR Tat displ 2.05.
Screening CC(C)CN(CC(C)C)c1nnc(NC(=O)NC2CCCC2)s1 returned CDC25B-CDK2 inh -2.53 and TAR Tat displ 1.9.
`Cc1c(N2C(=O)SC(CC(=O)O)C2=O)c(=O)n(-c2ccccc2)n1C` (configuration not stated) gave CDC25B-CDK2 inh -0.91.
Screening COC(=O)COc1ccc2c(=O)c(-c3ccc(OC)c(OC)c3)c(C(F)(F)F)oc2c1 returned CDC25B-CDK2 inh -7.39 and TAR Tat displ 2.39.
Screening CCOC(=O)C(=O)N(c1ccccc1)C1CC(C)N(C(=O)C(C)C)c2ccccc21 (configuration not stated) returned CDC25B-CDK2 inh 0.71 and TAR Tat displ 0.2.
`O=S(=O)(NC1CCCc2ccccc21)c1ccc(-n2cccn2)cc1` (configuration not stated) gave TAR Tat displ 0.97.
`COC(=O)c1noc(-c2ccc(F)cc2)n1` gave CDC25B-CDK2 inh -1.36 and TAR Tat displ 1.45.
O=C(O)c1cc(-c2ccccc2)nc2n[nH]c(-c3ccc(Br)cc3)c12 was read as TAR Tat displ 2.88.
O=C(C1CCN(c2nnc(N3CCCCC3=O)s2)CC1)N1CCCC1 was read as TAR Tat displ 1.67.
